From PubChem
liver stage – exo-erythrocytic parasite development inhibition – imaging, Malaria Box, P. yoelii, HepG2-A16-CD81EGFP, dose response (AID 602156); calls after a first round at 10 µM; hits with a dose series show IC50 in µM; 4.8% of 5,700 active; P. yoelii liver stage in HepG2-A16-CD81EGFP, imaging; first-round cut-off not given here; in the data active means a potency from the dose series;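 further: infected cells exposed to compound for 48 hours before fixation; stained parasite area by imaging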
Starred values were filed as active, the others as inactive. The list is partial; count on the stated rates, not on these rows.

Sample of the layout:
CC1(C)C2C[C@@H](COC(=O)NC(=O)c3ccccc3)[C@]3(C)[C@H](C21)C3(Cl)Cl (some centres undefined) was read as liver stage inactive.
For NC1=NC(=O)C(=CC=Cc2ccc([N+](=O)[O-])o2)S1 the results were liver stage inactive.
COc1ccc(CCNC(=O)c2cc(S(=O)(=O)N3CC(C)CC(C)C3)ccc2Sc2ccc(F)cc2)cc1OC (centres undefined) was read as liver stage inactive.
Screening CCOc1ccc2nc(Sc3nc(Nc4cccc(C)c4)nc(Nc4cccc(C)c4)n3)sc2c1 returned liver stage inactive.
O=C1CCC(CCNCc2ccc(Cl)cc2)N1CC1(N2CCCCC2)CCCC1 (centres undefined) was read as liver stage inactive.
O=C(c1ccc(N2CC3CC(C2)c2cccc(=O)n2C3)c(NS(=O)(=O)c2ccc3c(c2)OCCO3)c1)N1CCN(c2ccccn2)CC1 (centres undefined) was read as liver stage inactive.

The whole of this part, repeating the preview:
CC1(C)C2C[C@@H](COC(=O)NC(=O)c3ccccc3)[C@]3(C)[C@H](C21)C3(Cl)Cl (some centres undefined) was read as liver stage inactive.
For NC1=NC(=O)C(=CC=Cc2ccc([N+](=O)[O-])o2)S1 the results were liver stage inactive.
COc1ccc(CCNC(=O)c2cc(S(=O)(=O)N3CC(C)CC(C)C3)ccc2Sc2ccc(F)cc2)cc1OC (centres undefined) was read as liver stage inactive.
Screening CCOc1ccc2nc(Sc3nc(Nc4cccc(C)c4)nc(Nc4cccc(C)c4)n3)sc2c1 returned liver stage inactive.
O=C1CCC(CCNCc2ccc(Cl)cc2)N1CC1(N2CCCCC2)CCCC1 (centres undefined) was read as liver stage inactive.
O=C(c1ccc(N2CC3CC(C2)c2cccc(=O)n2C3)c(NS(=O)(=O)c2ccc3c(c2)OCCO3)c1)N1CCN(c2ccccn2)CC1 (centres undefined) was read as liver stage inactive.
CCOC(=O)C1=C(C)NC2=C(C(=O)CC(c3ccccc3)C2)C1c1ccccc1Cl (centres undefined) was read as liver stage inactive.
For O=C(N/C(=C/C=C/c1ccccc1)C(=O)N1CCCCC1)c1ccc([N+](=O)[O-])cc1 the results were liver stage inactive.
`CCCCN1C(=Cc2cccc[n+]2C)Sc2cc(NC(C)=O)ccc21` gave liver stage inactive.
`Brc1ccc(/C=C/c2cc[n+](Cc3ccccc3)cc2)cc1` gave liver stage inactive.
`Cc1c(Br)c([N+](=O)[O-])nn1CC(=O)NC(C)c1ccccc1` (centres undefined) gave liver stage inactive.
CCOc1ccc(CN(C(=O)COc2ccc(Cl)cc2)C(C)CCCN(CC)CC)cc1 (centres undefined) was read as liver stage 0.02µM*.

Grouped by structure, those above containing two or more sulfur atoms
COc1ccc(CCNC(=O)c2cc(S(=O)(=O)N3CC(C)CC(C)C3)ccc2Sc2ccc(F)cc2)cc1OC (centres undefined) was read as liver stage inactive.
Screening CCOc1ccc2nc(Sc3nc(Nc4cccc(C)c4)nc(Nc4cccc(C)c4)n3)sc2c1 returned liver stage inactive.

The list continues.
Screening O=C(Nc1ccc2c(c1)OCO2)c1cc2cc(C3(O)CCN(CC4CCCCC4)CC3)ccc2o1 returned liver stage inactive.
For CCCCCCCCCC[n+]1c(C)n(CC)c2cc(Cl)c(Cl)cc21 the results were liver stage inactive.
For COc1cc(C=CC(=O)Nc2ccc3nc(N4CCN(c5ncccn5)CC4)cc(C)c3c2)cc(OC)c1OC the results were liver stage inactive.
`CCC1CCCCN1C(=O)c1cc(-c2ccccc2OC)on1` (centres undefined) gave liver stage inactive.
Screening CC1CN(C(=O)c2sc3cccc(F)c3c2Cl)CC(C)O1 (centres undefined) returned liver stage inactive.
`CCOC(=O)C1=C(C)N=c2sc(=Cc3cc(Br)ccc3O)c(=O)n2C1c1ccc(OC)c(OC)c1` (centres undefined) gave liver stage inactive.
CC[N+](CC)=c1scc(-c2ccc(Cl)cc2)s1 was read as liver stage inactive.
For CCOC(=O)C1=C(C)NC2=C(C(=O)C(C(=O)OCC)C(c3ccccc3OC)C2)C1c1ccc(Cl)cc1 (centres undefined) the results were liver stage inactive.
O=[N+]([O-])c1cccc(Cl)c1N1CCN(S(=O)(=O)Cc2ccccc2)CC1 was read as liver stage inactive.
For Cc1ccc(/C=C/c2ccc(N(C)C)cc2)[n+](C)c1 the results were liver stage inactive.
Cc1ccc(N=C2S/C(=C\c3ccccc3)C(=O)N2c2ccc(C)cc2)cc1 was read as liver stage inactive.
`CC(C)C1c2[nH]c3ccccc3c2CCN1C(=O)CCl` (centres undefined) gave liver stage inactive.
`CC12CCC(CN(CC(O)Cn3c4ccc(Br)cc4c4cc(Br)ccc43)C1)C2(C)C` (centres undefined) gave liver stage inactive.
`CCOc1ccccc1-n1c(N)c(C(=O)Nc2ccc(C)cc2)sc1=S` gave liver stage inactive.
Screening OC(COc1ccccc1CNCCN1CCCC1)CN1CCc2ccccc2C1 (centres undefined) returned liver stage inactive.
Screening CC(=O)c1ccc(N2CCN(Cc3cc(-c4ccnc5cc(Cl)ccc45)ccc3O)CC2)cc1 returned liver stage inactive.
`CCC(c1nc2ccccc2c(=O)n1-c1cccc(C)c1)N(CCc1ccccc1)C(=O)Nc1c(C(C)C)cccc1C(C)C` (centres undefined) gave liver stage inactive.
Cc1nc(N)sc1C(=O)NN=Cc1cccc(Br)c1 was read as liver stage inactive.
Cc1ccccc1C(=O)N1CCC(n2nccc2NC(=O)CCOc2ccccc2)CC1 was read as liver stage inactive.
`CCOC(=O)C1=C(C)NC2=C(C(=O)C(C(=O)OCC)C(c3ccccc3OC)C2)C1c1cc(OC)c(OC)c(OC)c1` (centres undefined) gave liver stage 0.51µM*.
For CC1(C)N=C(N)N=C(N)N1c1ccc(Cl)cc1 the results were liver stage 0.0026µM*.
For O=C(Cc1c(F)cccc1Cl)Nc1cc(C(=O)N2CCN(Cc3ccccc3)CC2)ccc1N1CC2CC(C1)c1cccc(=O)n1C2 (centres undefined) the results were liver stage inactive.
For O=c1c2cnn(-c3ccccc3)c2nc(-c2ccccc2F)n1-c1ccc(Br)cc1 the results were liver stage inactive.
`Brc1ccc(-c2c[n+]3c(n2-c2ccccc2)SCC3)cc1` gave liver stage 0.83µM*.
CC(C)CNc1nc(NCCC2CCCN2C)ncc1C(=O)NCc1ccccc1 (centres undefined) was read as liver stage inactive.
For CCOC(=O)c1c(NC(=O)CSc2nnc(CNC(=O)c3cccc(C)c3)n2-c2cccc(C)c2)sc2c1CCC2 the results were liver stage inactive.
For N=C(N)c1ccc(OCCCOc2ccc(C(=N)N)cc2)cc1 the results were liver stage inactive.
`CCOc1ccc(NCc2ccc(O)c3ncccc23)cc1` gave liver stage inactive.
Screening CC(C)CN1C(=O)c2ccccc2C(C(=O)Nc2ccccn2)C1c1cccs1 (centres undefined) returned liver stage inactive.
For CC(Nc1ccccc1)C(=O)Nc1cc(C(F)(F)F)ccc1Cl (centres undefined) the results were liver stage inactive.
`CCCOC(=O)C1=C(C)NC2=C(C(=O)CC(c3ccccc3)C2)C1c1ccc(Cl)cc1Cl` (centres undefined) gave liver stage inactive.
`O=C(NCCCN1CCCC1=O)c1ccc2nc(N3CCOCC3)sc2c1` gave liver stage inactive.
Screening COc1ccc(C(=O)NC(c2ccc(C)cc2)c2cc(Cl)c3cccnc3c2O)cc1 (centres undefined) returned liver stage inactive.
CCOC(=O)C1=C(C)NC2=C(C(=O)CC(c3ccc(Cl)cc3)C2)C1c1ccc(Cl)cc1 (centres undefined) was read as liver stage inactive.
Screening COc1ccc(-c2cc(C(F)(F)F)n3ncc(C(=O)Nc4cccc(Cl)c4Cl)c3n2)cc1OC returned liver stage inactive.
`COc1ccc(NS(=O)(=O)c2cccc(C(=O)Nc3ccccc3[N+](=O)[O-])c2)cc1` gave liver stage inactive.
CCN1CCN(c2cc(C)c3cc(NC(=O)C=Cc4ccc(OC)cc4)ccc3n2)CC1 was read as liver stage inactive.
O=C1NN(c2ccccc2)C(=O)/C1=C1/C(=O)N(Cc2cccc3ccccc23)c2ccccc21 was read as liver stage inactive.
Screening O=C1C(Sc2ncn[nH]2)=CC(=NS(=O)(=O)c2cccs2)c2ccccc21 returned liver stage inactive.
O=C(NN=Cc1cc2ccccc2cc1O)c1cccnc1 was read as liver stage inactive.
O=C(Nc1ccc(F)cc1)N1CCN(c2ccc3nnc(-c4ccccc4)n3n2)CC1 was read as liver stage inactive.
Screening Cc1ccc(-n2c(C)cc(/C=C3\SC(=Nc4ccc(Cl)cc4)NC3=O)c2C)cc1 returned liver stage inactive.
For O=C(NC1CC1)c1ccc(OC2CCN(CC3CCCCC3)CC2)c(Cl)c1 the results were liver stage inactive.
Screening CCCCCCCC(=O)N(C)CCCNc1ccnc2cc(Cl)ccc12 returned liver stage inactive.
For CCOC(=O)c1c(-c2ccccc2)oc2c1C(=O)c1ccccc1C2=O the results were liver stage inactive.
Cc1cccc(-n2c(CNC(=O)c3ccc(S(=O)(=O)N4CCCCC4)cc3)nnc2SCC(=O)Nc2nccs2)c1 was read as liver stage inactive.
For CCC(=O)N(C1=C(NC)C(=O)c2ccccc2C1=O)C(C)C the results were liver stage inactive.
CCc1ccc2[nH]c(=O)c(CN(CCN(CC)CC)C(=S)NCCCN(C)C)cc2c1 was read as liver stage inactive.
Screening Cc1ccc(N2C(=O)C3C(C2=O)C2(c4ccccc4)C(=O)C3(c3ccccc3)C(c3ccccc3)=C2c2ccccc2)c([N+](=O)[O-])c1 (centres undefined) returned liver stage inactive.
`COc1ccc(/C=C2/SC(=Nc3ccccc3)NC2=O)c(OC)c1` gave liver stage inactive.
For CC1(C)C2CCC1(C)C(NCc1ccccc1O)C2 (centres undefined) the results were liver stage inactive.
Screening CC(CCCC(C)(C)O)Nc1cncc(-c2ccc(C(N)=O)cc2)n1 (centres undefined) returned liver stage inactive.
For C[n+]1ccc(C=Cc2ccc(O)cc2)cc1 the results were liver stage inactive.
`Cc1c(Cc2ccccc2)sc(N=Cc2ccc(Br)s2)c1C(N)=O` gave liver stage inactive.
`CN(CCCNc1ccnc2cc(Cl)ccc12)C(=O)c1cccc(F)c1` gave liver stage inactive.
Cc1ccc(NC(=O)C(C)Sc2nnc(-c3ccc(O)cc3)o2)cc1 (centres undefined) was read as liver stage inactive.
Screening COc1cc(C(C(=O)NCc2ccccc2)N(C(=O)c2snc(C(N)=O)c2N)c2ccc(C(C)C)cc2)cc(OC)c1OC (centres undefined) returned liver stage inactive.
`CC1C(Br)C(=O)C(Br)C(C)C12CCCC2` (centres undefined) gave liver stage inactive.
Screening COc1ccc(NC(=O)c2cc3cc(C4(O)CCN(CC(C)c5ccccc5)CC4)ccc3o2)cc1 (centres undefined) returned liver stage inactive.
`CC(=O)N(C1=C(N2CCCC2)C(=O)c2ccccc2C1=O)c1cccc(F)c1` gave liver stage inactive.
For COc1ccc(C2=C/C(=C/c3cccc(OC)c3OC)C(=O)O2)cc1OC the results were liver stage inactive.
`COc1ccc(-n2c(SC)nc3sc4c(c3c2=O)CCN(Cc2ccccc2)C4)cc1` gave liver stage inactive.
Screening CC[n+]1c(C=C2Sc3ccc(C)cc3N2CCO)ccc2ccccc21 returned liver stage inactive.
`CCC(=O)NNc1cc(N2CCCC2)nc(N2CCCC2)n1` gave liver stage inactive.
For CC(C)(C)c1ccc(C(=O)Nc2ccc(NC(=O)c3ccc(-c4cccc([N+](=O)[O-])c4)o3)cc2)cc1 the results were liver stage inactive.
`CCOC(=O)c1ccc2nc(C)cc(Nc3ccc(N4CCCCC4)cc3)c2c1` gave liver stage inactive.
CCc1ccc2[nH]c(=O)c(CN(CCO)C(=S)Nc3ccccc3CC)cc2c1 was read as liver stage inactive.
For O=C(NCc1ccccc1)c1cnc(NCCC(c2ccccc2)c2ccccc2)nc1NCC1CCCCC1 the results were liver stage inactive.
Screening C[n+]1oc(C=Cc2ccccc2)cc1C=Cc1ccccc1 returned liver stage inactive.
`O=C(NC1CC1)c1ccc(N2C(=O)C3C4c5ccccc5C(c5ccccc54)C3C2=O)cc1` (centres undefined) gave liver stage inactive.
For CCOC(=O)c1ccc2nc3c(nc2c1)C(=O)c1ccccc1C3=O the results were liver stage inactive.
`CCCCCN(CC(=O)Nc1cc(C(C)(C)C)nn1-c1ccc(Cl)c(Cl)c1)C(=O)c1ccc2c(c1)OCO2` gave liver stage inactive.
Screening COc1ccc(C=C2SC(=O)NC2=Nc2ccccc2)cc1 returned liver stage inactive.
`CC(=O)c1ccc(OCc2cc(C(=O)N3CCCCC3c3cccnc3)no2)cc1` (centres undefined) gave liver stage inactive.
Screening Cc1ccc2nc(Nc3nc4ccccc4c(=O)[nH]3)nc(C)c2c1 returned liver stage inactive.
`COc1cc(NCCCC(C)N)c2ncccc2c1` (centres undefined) gave liver stage inactive.
